D2 agonist: Beta-Arrestin HTS for Positive Allosteric Modulators of the Human D2 Dopamine Receptor: Agonists; AID 624465, 2012; activation, % (test concentration not listed); DiscoveRx PathHunter D2 beta-arrestin, luminescence, 90 min; 100% = 57 uM dopamine signal; actives 0.084% (n = 360,000); D(2) dopamine receptor (Homo sapiens), P14416; in the data active = activation above about 40%; inconclusive = about 15% to 40%; inactive = below about 15%; note: compound concentration not given in the record; the text of the record calls up to 30% inactive
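DiscoveRx PathHunter D2 beta-arrestin cells (2,100/well) attached overnight, then compound-stimulated 90 min at 37 C in HBSS/10 mM HEPES/0.1% Tween-20 buffer; beta-galactosidase complementation read by luminescence after 1 h at ambient temperature. Dopamine 57 uM final (EC100) as control.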
Six1-Eya2 blk: qHTS Assay for Inhibitors of the Six1/Eya2 Interaction; Homeobox protein SIX1 (Homo sapiens) + Protein phosphatase EYA2 (Homo sapiens), …; AlphaScreen GST-Six1/His-Eya2 binding, biochemical; hits give low values; control for the full effect not named in the record; activity change, % (test concentration not listed); actives 0.56% (n = 360,000); in the data active = activity change below about -65%; inconclusive = about -30% to -65%; inactive = above about -30%; note: % is set by controls: 0 for no effect and ±100 for the full control effect; compound concentration not given in the record
Target sequence (O00167 whole entry, looked up): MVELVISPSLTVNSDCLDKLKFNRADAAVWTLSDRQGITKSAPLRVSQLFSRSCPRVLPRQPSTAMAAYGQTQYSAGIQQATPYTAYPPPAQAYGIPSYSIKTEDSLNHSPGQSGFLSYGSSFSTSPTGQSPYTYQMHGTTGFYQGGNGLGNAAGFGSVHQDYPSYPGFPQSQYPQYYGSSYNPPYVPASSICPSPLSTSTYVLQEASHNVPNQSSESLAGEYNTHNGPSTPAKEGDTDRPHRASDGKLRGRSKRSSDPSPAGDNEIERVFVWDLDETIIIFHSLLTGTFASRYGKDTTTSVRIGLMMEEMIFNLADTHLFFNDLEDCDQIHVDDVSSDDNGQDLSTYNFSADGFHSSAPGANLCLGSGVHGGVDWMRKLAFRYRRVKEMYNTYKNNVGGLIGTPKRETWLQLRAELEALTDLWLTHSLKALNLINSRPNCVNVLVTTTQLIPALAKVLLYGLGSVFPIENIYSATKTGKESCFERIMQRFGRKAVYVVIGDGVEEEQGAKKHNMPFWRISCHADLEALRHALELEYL
Target sequence (Q15475 whole entry, looked up): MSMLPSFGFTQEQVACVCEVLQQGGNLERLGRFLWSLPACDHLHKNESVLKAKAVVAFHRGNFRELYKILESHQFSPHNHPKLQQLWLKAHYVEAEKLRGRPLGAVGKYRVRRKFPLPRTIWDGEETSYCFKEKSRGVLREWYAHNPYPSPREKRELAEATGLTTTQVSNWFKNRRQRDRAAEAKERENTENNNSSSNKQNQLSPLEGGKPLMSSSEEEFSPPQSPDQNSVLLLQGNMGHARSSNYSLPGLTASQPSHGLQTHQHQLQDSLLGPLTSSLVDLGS
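Homogeneous AlphaScreen proximity assay pairing GST-Six1 with His-tagged Eya2 (added as 5X mix: 250 nM and 500 nM) in 50 mM Tris pH 8.0, 300 mM NaCl, 1 mM TCEP. Glutathione donor and nickel acceptor beads; 1 h, 37 °C, dark.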
D2 potentiator: Beta-Arrestin HTS for Positive Allosteric Modulators of the Human D2 Dopamine Receptor: Potentiators; actives 0.23% (n = 360,000); potentiation, % (concentration not given with the values); DiscoveRx D2 beta-arrestin cells, luminescence, 90 min; 100% = 57 uM dopamine signal; active = potentiation of 50% or more; inconclusive = 30% to 50%; inactive = 30% or less;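 note: compound concentration not given in the record; tested on top of an EC20 dose of dopamine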
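PathHunter D2 cells, attached overnight at 37 deg C, received compound in DMSO plus dopamine at EC20 (50 nM final) for 90 min at 37 deg C. Beta-arrestin recruitment was read as luminescence after 1 h with detection reagent at ambient temperature.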
CtBP-E1A blk: qHTS Assay for Inhibitors of the CtBP/E1A Interaction. CtBP / adenovirus E1A interaction (AlphaScreen). AlphaScreen GST-E1A/His-CtBP binding, 1536-well; hits give low values; control for the full effect not named in the record. activity change, % (concentration not given with the values). actives 0.49% (n = 340,000); in the data active means activity change below about -65%; inconclusive means about -30% to -65%; inactive means above about -30%; note: % is set by controls: 0 for no effect and ±100 for the full control effect
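AlphaScreen with 125 nM GST-E1A and 125 nM His-CtBP (5X stocks) in Tris pH 8.0, 300 mM NaCl, BSA, Tween 20, TCEP. Compounds preincubated 2 h at 37 deg C, then glutathione donor/nickel acceptor beads added for 1 h at 37 deg C in dark.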
PINK1 modulator: A Quantitative High throughput Screen to Identify Chemical Modulators of PINK1 Expression; PINK1 immunofluorescence, high-content cytometry, 24 h; Potency, µM (top dose mostly 76.6 µM), without a hit: at the top dose activation (PINK1 increase), most hits filed as activators; actives 0.2% (n = 410,000); AID 624263, 2012; active = well fitted activation curve with a large enough effect; inconclusive = small, poorly fitted or top-dose-only effect; inactive = flat fitted curve, though single readings scatter; cell line not stated here;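 note: potency is the fitted concentration of half-maximal effect; % of control where 0% means no effect; nearly all actives have a fitted effect of over 65% in size; a mitochondrial uncoupler was the plate control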
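Readout is PINK1 immunofluorescence, quantified alongside mitochondrial, cell and nuclear markers by laser-scanning microplate cytometry. Cells from a stable line were exposed to compound titrations (5 concentrations) for 24 hours, with CCCP controls.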
TRPML1 agonist: qHTS for Agonists of the Human Mucolipin Transient Receptor Potential 1 (TRPML1). Mucolipin-1 (Homo sapiens), Q9GZU1. TRPML1-expressing cells, Ca2+ dye fluorescence, FDSS; host cell line not named in the record; reference of the full effect not given here. activation, % (concentration not given with the values). actives 0.12% (n = 410,000); in the data active = activation above about 50%; inconclusive = about 30% to 50%; inactive = below about 30%; note: 0% is about no effect; the text of the record puts the active cut at 80%
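TRPML1-DL cells, Tet-induced overnight (~16 h, 37 degrees C), loaded 45-90 min at room temperature with Ca8 no-wash calcium dye plus quencher. FDSS fluorescence: 10 s baseline, compound pin-transfer, 110 s agonist read, then EC80 54-4 (4uM final) and 110 s antagonist read.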
The depositor's hits bear a star; ? = inconclusive; / = no result given; [ ] = dose if it differs, or a comment.

No. | smiles | PINK1 modulator | TRPML1 agonist | CtBP-E1A blk | D2 potentiator | Six1-Eya2 blk | D2 agonist
1 | O=C(NC1CC(=O)N(c2ccc3c(c2)OCCO3)C1)N1CCCCC1 (stereo not drawn) | 1.2% | -0.2 | -1 | -6 | -7 | -6.2
2 | C#CCN1CC(C)/C(=N/O)CC1C (stereo not drawn) | 3.1% | 0.3 | 16 | -6 | 11 | 1.8
3 | COc1ccc(-c2nc3cc(C)ccn3c2NC(=O)c2ccccc2OC)cc1 | 7.0% | -1.0 | -9 | 0 | -4 | -4.6
4 | CCCc1cc(=O)oc2cc(C)cc(OC(C)C(=O)NCc3cccnc3)c12 (stereo not drawn) | -0.3% | 1.4 | 3 | 0 | 1 | 8.2
5 | COCCOC(=O)/C(C#N)=C/c1cn(Cc2ccccc2)nc1-c1cccnc1 | 0.6% | -1.5 | 7 | 1 | 3 | -2.4
6 | COc1ccc(CN(C)C(=O)c2ccccc2Sc2ccccc2C#N)cc1OC | 1.3% | 2.4 | -8 | -2 | 12 | 3.2
7 | Cc1nnc2n1N=C(c1ccccc1)CS2 | 4.5% | 0.2 | 6 | -2 | 9 | 0.8
8 | COc1ccc(OC)c(C(=O)CN2C(=O)C(=O)N(C3CCCC3)C2=O)c1 | -0.5% | -0.3 | 10 | -12 | 3 | -2.6
9 | O=C(NCc1ccc(F)cc1)c1nc(-c2cccs2)no1 | 1.1% | 0.0 | 3 | -5 | 15 | 1.0
10 | Fc1ccc(CCn2c(Cn3c(-c4cnccn4)nc4ccccc43)nc3ccccc32)cc1 | 0.6% | 0.8 | -15 | / | -27 | /
11 | Cc1nnc(NC(=O)CSc2nc3c(c(=O)n2CCc2ccccc2)SC(C)C3)s1 (stereo not drawn) | 0.3% | -0.5 | 4 | -1 | 3 | -3.3
12 | CCN(CC)CCCn1c2c(c(SCC(=O)N3CCCc4ccccc43)nc1=O)CCC2 | -2.3% | 0.1 | 6 | -6 | 7 | -4.7
13 | COc1ccc(-c2csc(NC(=O)C3CCN(C(=O)c4ccc(F)cc4)CC3)n2)cc1OC | 0.1% | 0.9 | -13 | ? | -23 | ?
14 | O=C(COC(=O)CNC(=O)c1ccccc1)Nc1ccc(F)c([N+](=O)[O-])c1 | 1.2% | -0.5 | 11 | -6 | 3 | -2.8
15 | NC(=O)C1(Nc2ccc(-c3ccc(Br)cc3)cc2)CCCC1 | 3.8% | 2.0 | -15 | 10 | -7 | 0.7
16 | COCCNC(=O)C1(C)Cc2c(-c3cccc(C(F)(F)F)c3)ccnc2O1 (stereo not drawn) | 7.1% | -0.9 | 1 | -1 | -2 | -7.6
17 | Cc1ccc(C(=O)OCC(=O)Nc2cc(S(C)(=O)=O)ccc2Cl)cc1S(=O)(=O)N1CCCCC1 | ? | 1.6 | 4 | -31 | -9 | -4.4
18 | COc1ccc(C(CC(=O)O)NC(C)=O)cc1OC (stereo not drawn) | 1.7% | -0.5 | -8 | 4 | 0 | -0.3
19 | CCOC(=O)C1(C)CCCN1C(=O)c1ccc(OC)c(OC)c1 (stereo not drawn) | 1.0% | -0.5 | 6 | -9 | 8 | -2.4
20 | N#C/C(=C\c1cccs1)C(=O)NCc1ccco1 | 0.7% | -0.5 | -1 | -2 | 2 | -6.1
21 | COc1ccc(-c2[nH]ncc2CN(CCO)Cc2cccs2)c(F)c1 | 3.5% | -0.6 | 11 | -10 | -18 | -2.7
22 | CCC(C)(C)n1nnnc1C(c1ccc2ncccc2c1)N1CCN2CCCC2C1 (stereo not drawn) | -3.1%[38.3 µM] | 0.8 | 3 | -6 | -2 | -1.2
23 | CCO[C@@H]1OC(C(=O)N2CCN(Cc3ccccc3)CC2)=C[C@H](c2coc3ccccc3c2=O)[C@H]1CCCO | 1.0% | -0.3 | -4 | -13 | -3 | -1.2
24 | COc1cccc(NC(=O)COC(=O)Cc2ccc(Cl)cc2)c1 | 3.0% | 0.0 | 9 | -16 | 1 | -4.0
25 | Cn1c(=O)cc(OCCCC(=O)Nc2ccccn2)c2ccccc21 | 11% | -0.5 | 6 | -7 | -2 | -0.8
26 | O=C(NCCNC(=O)c1ccccc1Br)c1cccnc1 | 0.4% | 0.2 | -6 | -1 | 7 | -3.2
27 | CCC(C)NC(=O)c1ccc(CS(=O)(=O)c2ccc(OC)cc2)o1 (stereo not drawn) | -0.5% | -0.1 | 3 | -2 | -1 | -1.3
28 | Cc1c(Cl)c(C(F)(F)F)nn1CC(=O)NN | 4.6% | -0.5 | 7 | -7 | -1 | -2.0
29 | CC(C)N(C(=S)Nc1cccc(C(F)(F)F)c1)C(C)c1ccccn1 (stereo not drawn) | 32µM* | -0.2 | -21 | -3 | 18 | -3.3
30 | O=S(=O)(c1ccc2c(c1)OCCO2)N1CCc2ccccc21 | 3.4% | 1.8 | 11 | 2 | 0 | -4.2

No. | smiles | PINK1 modulator | TRPML1 agonist | CtBP-E1A blk | D2 potentiator | Six1-Eya2 blk | D2 agonist
31 | Cc1sc(N)nc1-c1ccc2c(c1)OCCO2 | 0.5% | -0.7 | / | -1 | -2 | 0.7
32 | COc1ccc(NC(=O)CN(C)CC(=O)c2[nH]c(C)c(C(C)=O)c2C)cc1 | 1.4% | 0.0 | 8 | -15 | -12 | -4.8
33 | COc1ccc(C(=O)Nc2nc3ccc(S(C)(=O)=O)cc3s2)cc1 | 3.4% | -0.5 | -2 | -7 | -1 | -3.5
34 | COC(=O)c1c(NC(NC(=O)C(C)(C)C)C(Cl)(Cl)Cl)sc2c1CCC2 (stereo not drawn) | 5.8% | 0.6 | -2 | 9 | -14 | -0.2
35 | Cc1cccc(C(=O)Nc2nsc(N)n2)c1 | 1.2% | -0.6 | 1 | -8 | -8 | -2.6
36 | Cc1ccc(NC(=O)c2cc(N3C(=O)CCC3=O)ccc2N2CCOCC2)cc1 | 2.4% | -1.4 | -4 | 0 | 2 | -4.9
37 | COc1ccc(Cl)cc1NC(=O)CN(C)C(=O)CN1C(=O)NC2(CCCC2)C1=O | 1.7% | -0.1 | -20 | -3 | 8 | -1.4
38 | Cc1c(N2C(=O)/C(=C/c3cccc4ccccc34)SC2=S)c(=O)n(-c2ccccc2)n1C | 2.9%[38.3 µM] | 0.9 | -19 | 4 | -9 | 2.2
39 | O=c1[nH][nH]c(C(F)(F)F)c1/C=N/N1CCOCC1 | 0.1% | -0.2 | / | -8 | 22 | -3.1
40 | COc1ccccc1OCC(=O)NCCSCc1ccc(Cl)cc1 | -0.3% | 1.5 | 11 | -16 | 19 | -1.3
41 | CCOC(=O)N1CCC(N2Cc3cccc(C(=O)Nc4ccc(N(CC)CC)cc4C)c3C2=O)CC1 | -0.4% | -0.9 | 3 | 1 | -2 | -0.4
42 | COc1ccc(C(=O)NNC(=O)CSc2nnc(C3CC3)n2C)cc1 | 1.4% | -1.1 | 22 | 3 | 6 | -0.4
43 | CNc1cc([N+](=O)[O-])ccc1OCc1ccccc1 | 0.3% | / | 8 | 0 | 11 | -7.6
44 | COc1cc(NCCCn2cnc(C(=O)Nc3ccc(C)c(C)c3)n2)cc(OC)c1OC | -0.2% | -0.6 | -13 | / | -17 | 7.0
45 | Fc1ccc(Oc2ccnc(Cl)n2)c(Cl)c1 | 0.8% | 1.7 | 11 | -4 | 18 | 0.1
46 | Cc1nn(C(=O)Cn2ccc([N+](=O)[O-])n2)c(C)c1Cl | -0.6% | -0.4 | 1 | 0 | -8 | -5.3
47 | COC(=O)c1ccc(C)c(NC(=O)CN2C(=O)c3ccccc3S2(=O)=O)c1 | 3.8% | -1.0 | 9 | -3 | -8 | -3.0
48 | O=C(CN1c2ccccc2S(=O)(=O)c2ccccc21)NCc1ccc(F)cc1 | -0.5% | -0.5 | 4 | 1 | 7 | 1.1
49 | CCOC(=O)C1CCCN(C(=S)Nc2ccc(F)cc2)C1 (stereo not drawn) | -0.1% | -0.3 | -13 | -17 | 10 | -1.3
50 | Cc1cc(C)c(S(=O)(=O)/N=C2\C=CC(=O)C(Cl)=C2)c(C)c1 | 2.6%[38.3 µM] | 0.7 | 0 | 23 | -5 | 3.9
51 | Cc1ccc(C)c(-n2c(SCC(=O)N3CCC(C(=O)O)CC3)nnc2-c2cccc(Cl)c2)c1 | 2.2% | 1.9 | / | -2 | 2 | -4.4
52 | COCCNC(=O)c1cc(S(=O)(=O)N2CCCCC2)ccc1N1CCOCC1 | 5.0% | 0.1 | -24 | 12 | 8 | 0.5
53 | O=C(O)/C=C/C(=O)NCCCc1ccccc1 | -1.0% | 1.1 | / | -3 | 6 | -2.5
54 | O=C(COC(=O)/C=C/c1cccc(C(F)(F)F)c1)NC(c1ccccc1)c1ccccc1 | ? | -0.2 | 14 | -6 | 2 | -3.0
55 | CCOC(=O)C1CCN(S(=O)(=O)c2ccc(OC)c(C(=O)N3CCCCCC3)c2)CC1 | 3.5% | -0.6 | -6 | -10 | 6 | -2.0
56 | CC(=O)Oc1ccc2occ(-c3ccccc3)c2c1 | 0.5% | 0.5 | / | -5 | 56 | -1.5
57 | COc1ccc(OC)c(NC(=O)CSc2nnc(Cc3cccn3C)n2CCc2ccccc2)c1 | -1.9%[38.3 µM] | 0.4 | ? | -19 | ? | -1.5
58 | CNc1nc(NC)c2cn[nH]c2n1 | 0.2% | 0.0 | 8 | -6 | -2 | 0.1
59 | CCCC(c1nnnn1CCOC)N1CCN(Cc2ccccc2)CC1 (stereo not drawn) | 1.6% | -0.5 | 0 | -7 | 9 | 0.8
60 | S=C(NCCc1ccccc1)Nc1cccc2cnccc12 | -0.6% | -0.1 | 3 | 0 | 0 | -0.3
61 | O=C(Nc1cccc(-c2cn3cccnc3n2)c1)c1cccs1 | -1.7% | 0.6 | ? | -10 | ? | -2.1

Nos. 31 through 32 from above:
No. | smiles | PINK1 modulator | TRPML1 agonist | CtBP-E1A blk | D2 potentiator | Six1-Eya2 blk | D2 agonist
31 | Cc1sc(N)nc1-c1ccc2c(c1)OCCO2 | 0.5% | -0.7 | / | -1 | -2 | 0.7
32 | COc1ccc(NC(=O)CN(C)CC(=O)c2[nH]c(C)c(C(C)=O)c2C)cc1 | 1.4% | 0.0 | 8 | -15 | -12 | -4.8

Looked up by structure from the list above, 3 records:
No. | smiles | PINK1 modulator | TRPML1 agonist | CtBP-E1A blk | D2 potentiator | Six1-Eya2 blk | D2 agonist
42 | COc1ccc(C(=O)NNC(=O)CSc2nnc(C3CC3)n2C)cc1 | 1.4% | -1.1 | 22 | 3 | 6 | -0.4
61 | O=C(Nc1cccc(-c2cn3cccnc3n2)c1)c1cccs1 | -1.7% | 0.6 | ? | -10 | ? | -2.1
46 | Cc1nn(C(=O)Cn2ccc([N+](=O)[O-])n2)c(C)c1Cl | -0.6% | -0.4 | 1 | 0 | -8 | -5.3

An unsorted share of the library, and some 1.3% of all compounds hit somewhere here.
